VDR inhibitor: vitamin D3 receptor (human) inhibition | 400,000 tested, 0.93% active | P11473 | VDR-SRC2-3 peptide fluorescence polarization, 2 h | Potency, µM, inactives show max response, negative = inhibition, usual class: inhibitors | AID 504847; active = well fitted inhibition curve with a large enough effect; inconclusive = small, poorly fitted or top-dose-only effect, or another doubt; inactive = no such curve, though single readings can be large or run the other way; note: series mostly up to about 120 µM
Target sequence (P11473 whole entry, looked up): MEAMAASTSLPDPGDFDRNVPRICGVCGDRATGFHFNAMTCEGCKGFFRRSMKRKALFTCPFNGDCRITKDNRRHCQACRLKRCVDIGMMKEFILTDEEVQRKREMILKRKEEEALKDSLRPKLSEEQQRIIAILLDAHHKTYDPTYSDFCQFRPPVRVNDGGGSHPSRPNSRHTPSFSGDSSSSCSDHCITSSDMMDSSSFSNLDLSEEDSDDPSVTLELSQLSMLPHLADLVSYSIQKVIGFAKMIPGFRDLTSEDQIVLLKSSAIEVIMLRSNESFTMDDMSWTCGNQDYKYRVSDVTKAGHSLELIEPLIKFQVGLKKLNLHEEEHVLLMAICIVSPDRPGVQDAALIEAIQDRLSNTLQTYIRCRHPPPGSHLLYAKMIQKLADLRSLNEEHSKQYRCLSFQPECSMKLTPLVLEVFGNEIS
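Inhibition of the VDR/SRC2-3 peptide interaction is quantified by fluorescence polarization. Compounds (23 nl, pintool) incubate with the reagents for 2 hours at ambient room temperature.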
* = called active by the depositor; ? = inconclusive; & = joins results of further samples; [ ] = another dose, or the depositor's remark. % is set by controls: 0 for no effect and ±100 for the full control effect; potency is the fitted concentration of half-maximal effect.

Structure,VDR inhibitor
CCN(Cc1ccccc1)C(=O)c1cc(-c2ccccc2)n[nH]1,0%
O=C(COc1ccccc1F)NNC(=O)c1cccc(-n2cccc2)c1,4%
CC(C)Cc1ccc(C(C)/C=C2/CCC(CN3CCCCC3)C2=O)cc1 (centres undefined),?
O=C(CN1C(=O)NC2(CCCc3ccccc32)C1=O)NCCc1ccc(F)cc1 (centres undefined),-10%
O=C(CSc1ncnc2c1oc1ccccc12)Nc1ccccc1C(F)(F)F,-6%
CCOc1ccc(-c2nc(SCC(=O)NC3CCCC3)c(-c3ccccc3)[nH]2)cc1OC,-6%
S=C(Nc1ccccc1Cl)NC1CCCCCC1,-6%
COC(=O)c1c(CSc2ccc(Cl)cc2)noc1C(=O)NCc1ccco1,-11%
Cc1csc2nc(COc3ccc(NC(=O)COc4ccc(F)cc4)cc3)cc(=O)n12,?
c1cncc(Nc2nc(-c3cccnc3)cs2)c1,25%
COc1ccc(S(=O)(=O)NC(C)C(=O)N2CCCC2)cc1C (centres undefined),-1%
COc1ccc(CNC(=O)C2CCC(CNc3c(N4CCOCC4)c(=O)c3=O)CC2)cc1 (centres undefined),25%&-12%
CC(C)c1ccc(OCC(=O)Nc2cccc3c2CCCC3)cc1,13%
O=C(CSc1nnc(-c2ccc(F)cc2)o1)Nc1ccccc1N1CCOCC1,6%
Cc1n[nH]c(=S)n1/N=C/c1ccc(Br)o1,10%
COc1cc(NC(=O)COc2cc(O)c3c(c2)OC(C)(C)CC3=O)cc(OC)c1OC,-10%
CC1CCc2c(sc(NC(=O)Cn3nc(C(F)(F)F)c4c3CCCCC4)c2C#N)C1 (centres undefined),-21%
Cc1ccc2c(c1)c1c(n2CC(O)Cn2ccnc2C)C(=O)CCC1 (centres undefined),11%
CCC(C)CCN1CCN=C1Nc1ccccc1 (centres undefined),-5%
CC(C)[C@H](NC(=O)NC1CCN(Cc2ccccc2)CC1)C(=O)O,-11%
CC1CCCCN1C(=O)c1cc(-c2ccc(Br)cc2)on1 (centres undefined),-24%
Cc1ccc(S(=O)(=O)N2CCN(Cc3csc(C)n3)CC2)cc1,-13%
NS(=O)(=O)c1ccc(CCNC(=O)COC(=O)Cc2c(F)cccc2Cl)cc1,7%
Cc1c(NC(=S)NC(=O)c2cccc([N+](=O)[O-])c2)c(=O)n(-c2ccccc2)n1C,-4%
COc1ccc(N(C(=O)c2cccnc2)S(=O)(=O)c2ccc(OC)c(OC)c2)cc1,3%
Cc1ccc(OCCn2cc(/C=C(\C#N)C(=O)NCC3CCCO3)c3ccccc32)cc1C (centres undefined),-1%
Cc1ccc(-c2nc(CNC(=O)NC3CCCCC3)c(C)o2)cc1,12%
Cc1ccccc1CCN(C(=O)c1csnn1)C(C(=O)NC1CCCC1)c1ccncc1 (centres undefined),?
COc1ccc(NC(=O)c2ccc(CN3C(=O)CCn4nc(C)cc43)cc2)c(OC)c1,3%
CC(=O)c1c(C(C)=O)c(C)n(-c2cccc([N+](=O)[O-])c2)c1C,-1%
O=C(O)CCC(=O)Nc1ccccc1Oc1ccccc1,79µM*
Cc1cccc(NC(=O)CSc2nnc3c4ccccc4n(C)c3n2)c1,-15%
CN(CC(=O)Nc1cccnc1)S(=O)(=O)c1cc(Cl)ccc1Cl,-5%
Cn1cc(CCCC(=O)NCc2ccc(F)cc2)c2ccccc21,-13%&19%
COc1ccc(C2CC(C(F)(F)F)n3ncc(C(=O)Nc4cccc(O)c4)c3N2)cc1OC (centres undefined),5%
COc1cccc(NC(=S)NC2CC3CCCC(C2)N3CC(C)C)c1 (centres undefined),4%
COc1cccc(/C=N/n2c(-c3ccco3)nc3ccccc3c2=O)c1,5%
Cc1cc(C)c(NC(=O)Cn2nnc(-c3ccccc3)n2)c(C)c1,-22%
CCc1ccccc1NC(=O)Cn1cc(C(=O)c2ccncc2)c(=O)c2cc(C)ccc21,19%
CCN(CC)S(=O)(=O)c1cccc(C(=O)Oc2cccc(NC(=O)c3cccs3)c2)c1,-16%
CC(=O)N(Cc1cccnc1)Cc1cc2ccc(C)cc2[nH]c1=O,9%
Cc1ccc(-n2ncc(C(=O)NCCc3ccsc3)c2C2CCN(C(=O)OC(C)(C)C)CC2)c(C)c1,6%
CN(Cc1cccc2cnccc12)C(=O)c1cc(COc2ccc(F)cc2F)on1,-5%
Cc1ccc(C(C(=O)NC2CCCCC2)N(C(=O)Cc2c[nH]c3ccccc23)c2ccccc2)o1 (centres undefined),-3%
CCCC1(c2ccccc2)NC(=O)N(CC(=O)Nc2sc(-c3ccccc3)cc2C(=O)OCC)C1=O (centres undefined),-15%
COc1ccc(C(=O)Nc2ccc(OCc3cc(=O)n4ccsc4n3)cc2)cc1OC,-10%
COc1ccc(Br)cc1S(=O)(=O)NCCc1cccs1,-18%
Cc1ccc2nc3c(c(Nc4ccc(O)cc4)c2c1)CCC3,-4%
CN(C)c1nc(NS(=O)(=O)c2ccc(Cl)cc2)nc(N(C)C)n1,2%
CC(C)COc1cccc(C(=O)N(CC(=O)Nc2ccccc2C(F)(F)F)Cc2ccco2)c1,0%
CCOC(=O)c1ccc(NC(=O)c2sc3nc(N4CCOCC4)c4c(c3c2N)CCCC4)cc1,1%
Cc1ccc(NC(=O)N2CCN(c3ncccc3C(F)(F)F)CC2)cc1,-14%
O=C(Cn1c(=O)n(CC2CCCO2)c(=O)c2ccccc21)c1ccc(Cl)c(Cl)c1 (centres undefined),-17%
COc1ccc(NC(=O)n2ncc3c(C)cccc32)cc1,50%[activator]
Cc1ccccc1CS(=O)(=O)CC1Nc2ccc(C(=O)NCc3ccc(Cl)cc3)cc2NC1=O (centres undefined),10%
CCO[C@@H]1OC(C(=O)N2CCOCC2)=C[C@H](c2cn(C(C)=O)c3ccccc23)[C@H]1CCCO,10%
Cc1ccc2cc(CN(CCO)Cc3nnnn3Cc3ccc(F)cc3)c(=O)[nH]c2c1,-6%
O=C(/C(=C/O)N=Nc1ccccc1)c1ccc(Cl)cc1,-17%
COc1ccc(Nc2nnc(-c3ccc(C)c(S(=O)(=O)N4CCN(C)CC4)c3)c3ccccc23)cc1,-15%
CC(C)NC(=O)CN1C(=O)COc2ccc(S(=O)(=O)N3CCCCCC3)cc21,-7%

Four of the compounds above, field by field:
> O=C(CN1C(=O)NC2(CCCc3ccccc32)C1=O)NCCc1ccc(F)cc1 (centres undefined)
  VDR inhibitor: -10%

> O=C(CSc1ncnc2c1oc1ccccc12)Nc1ccccc1C(F)(F)F
  VDR inhibitor: -6%

> CCOc1ccc(-c2nc(SCC(=O)NC3CCCC3)c(-c3ccccc3)[nH]2)cc1OC
  VDR inhibitor: -6%

> S=C(Nc1ccccc1Cl)NC1CCCCCC1
  VDR inhibitor: -6%

The list goes on:
Structure,VDR inhibitor
Cc1ccccc1NC(=O)C(Cc1ccccc1)N1Cc2ccccc2C1=O (centres undefined),15%
Cc1ccc(CNC(=O)CSc2nc3c(sc4ccccc43)c(=O)n2CCCN2CCCC2)cc1,1%
CCCN(CCC)C(=O)Cn1c(=O)n(CCC(=O)NCCc2ccccc2)c(=O)c2ccccc21,4%
CCOC(=O)N1CCN(C(=O)COC(=O)c2ccccc2NCCO)CC1,-4%
Cc1ccc(C2/C(=C(\O)c3ccc4c(c3)OCCO4)C(=O)C(=O)N2CC2CCCO2)cc1 (centres undefined),-6%
CC(C)(C)[C@H]1C=C(C(=O)N2CCOCC2)O[C@@H](OCc2ccc(CO)cc2)C1,-10%
CCc1ccccc1NC(=O)CC(C)S(=O)(=O)c1ccc2c(c1)NC(=O)CO2 (centres undefined),10%
COc1cccc(CN(Cc2ccco2)S(=O)(=O)c2ccc(S(=O)(=O)NCc3ccccc3)cc2)c1OC,9%
O=C(C[C@H]1C/C=C\C[C@@H](Cc2ccc(F)cc2)C(=O)O[C@@H](c2ccccc2)CNC1=O)NCCO,11%
COc1ccc(Cc2nc(-c3cccc(C)c3)no2)cc1,28%
Cc1ccc(CNC(=O)c2ccc[nH]2)cc1,-16%
COc1cc(OC)c(OC)cc1/C=N/n1c(-c2n[nH]c3c2CCC3)n[nH]c1=S,2%
COc1ccc(C2C(C(C)=O)=C(O)C(=O)N2c2ccc(O)cc2)cc1 (centres undefined),4%
Cc1[nH]c2ccccc2c1C(=O)COC(=O)CCS(=O)(=O)c1ccccc1Cl,4%
COc1ccc(NC(=O)Nc2nnc(N3CCC(C)CC3)s2)cc1OC,-9%
COc1cccc(N2CCN(C(=O)c3cc4c(s3)CCCCC4)CC2)c1,-27%
O=S(=O)(c1cccs1)N1CN(Cc2ccco2)c2nc3ccccc3nc21,6%
Fc1ccccc1NC(=S)NNc1ncc(C(F)(F)F)cc1Cl,?
Cc1ccc(CSc2nc(-c3ccc(C(C)(C)C)cc3)nc3cc(=O)[nH]n23)cc1,3%
COC(=O)c1c(NC(=O)c2ccc(Cl)c(Cl)c2)sc2c1CCCC2,3%
NC(=O)NC(CC(=O)NCCc1ccccn1)c1ccccc1Cl (centres undefined),1%
O=C(COC(=O)c1nc(Cl)ccc1Cl)c1ccc(Cl)s1,12%
Cc1cccc(-n2nnnc2SCC(=O)N(CC(C)C)c2c(N)n(CC(C)C)c(=O)[nH]c2=O)c1,-22%
Cc1ccc(CSc2nn3c(=O)c(C)nnc3s2)cc1,5%
COc1ccc(-n2c(SCC(=O)Nc3cc(C)on3)nc3ccccc3c2=O)cc1Cl,-1%
O=S(=O)(NN1CCOCC1)c1ccc(Br)s1,?
COc1ccc(Oc2ccc(N/C=C3/CCCC3=O)cc2)cc1,-2%
Cc1c(OCC(=O)NCCCN2CCOCC2)ccc2c3c(c(=O)oc12)CCC3,-6%
Cc1no[n+]([O-])c1COc1ccc(/C=C(\C#N)C(N)=O)cc1,?
Cc1ccc(CNC(=O)c2ccc3nc(SCc4ccc(F)cc4)[nH]c3c2)cc1,-2%
COc1ccc(C(C(=O)NC2CCCC2)N(Cc2cccnc2)C(=O)Cc2cccs2)c(OC)c1 (centres undefined),5%
COC(=O)c1ccc2c(CCO)c[nH]c2c1,-2%
CC(C)CN(C(=O)C(c1ccccc1)c1ccccc1)c1c(N)n(CC(C)C)c(=O)[nH]c1=O,7%
CC1(C)CC(=O)C2=C(C1)OC1=C(C(=O)CC(C)(C)C1)C2c1ccccc1,2%
CCc1ccc(NC(=O)C2CCN(c3ccc(Sc4ccc(C)cc4)nn3)CC2)cc1,-16%
COc1ccc(Cl)cc1C(=O)NNC(=S)NC(=O)c1ccc(F)c(F)c1,-18%
O=C(NCCCc1ccccc1)c1nn(-c2ccccc2F)nc1CO,10%
CN(Cc1ccccc1)C(=O)CCC(=O)N(C)Cc1ccccc1,-5%
CC(C)N(CCC#N)C(=O)Nc1ccc2c(c1)CCO2,4%
Cc1ccccc1CN1CCNC(=O)C1CC(=O)O (centres undefined),-8%
COc1ccc(/C=N/NC(=O)CNC(=O)c2ccc3c(c2)OCCO3)cc1OC,-11%
COc1ccc(CNC(=O)c2c(O)nc3c(C)cccn3c2=O)cc1,-2%
O=[N+]([O-])c1ccc(CN2CCCCCC2)s1,12%
CCSc1ncnc2sc3c(c12)CCC3,5%
CSCC[C@H](NC(=O)Nc1cccc(Br)c1)C(=O)O,-15%
Nc1nc2ccc(S(=O)(=O)c3ccc4nc(N)sc4c3)cc2s1,2%
COc1ccc(S(=O)(=O)N(CC(=O)Nc2cc(C)on2)Cc2ccccc2)cc1,0%
CC1CC(C)(C)NC(=S)N1CCC(=O)N1CCc2ccccc2C1 (centres undefined),7%
COC(=O)c1cccc(C(=O)Nc2ccc(F)cc2)n1,3%
NC(=O)C1=C(c2ccccc2)c2ccccc2C1=O,40µM*
CC(CC(=O)NCc1cccnc1)c1ccccc1 (centres undefined),-4%
CCN(CC)C(=O)c1cccc(NC(=O)c2cc(C3CC3)nc3c2cnn3C(C)C)c1,-20%
Cn1cc(C(=O)NS(=O)(=O)Nc2ccc(Br)cn2)c2ccccc21,17%
O=c1ccc(-c2nc3ccccc3n2Cc2ccc(Cl)cc2)c[nH]1,-15%
COc1cc(OC)c(C2=NOC(C(=O)Nc3ccc4c(c3)OCO4)C2)cc1Cl (centres undefined),-9%
COC(=O)C1[C@H]2SC(C)(C)C(C(=O)OC)N2C(=O)N1Cc1nc2ccccc2s1 (some centres undefined),-13%
CCOC(=O)N1CCN(C(=O)c2ccc3c(c2)N=C(CC)c2cc(C)ccc2S3)CC1,-6%
Cc1ccc(C)c(N(CC(=O)NCc2ccco2)C(=O)CNS(=O)(=O)c2ccc(F)cc2)c1,14%

Four neighbouring entries from above, quoted:
Structure,VDR inhibitor
COc1ccc(/C=N/NC(=O)CNC(=O)c2ccc3c(c2)OCCO3)cc1OC,-11%
COc1ccc(CNC(=O)c2c(O)nc3c(C)cccn3c2=O)cc1,-2%
O=[N+]([O-])c1ccc(CN2CCCCCC2)s1,12%
CCSc1ncnc2sc3c(c12)CCC3,5%

High-throughput results: PubChem, National Center for Advancing Translational Sciences (NCATS)

The list is partial; rates above refer to the full screens.
